D2 PAM: potentiates the human D2 dopamine receptor allosterically; P14416; DiscoveRx D2 beta-arrestin cells, luminescence, 90 min; 100% = 57 uM dopamine signal; potentiation, % (no concentration beside the values); 360,000 compounds, 0.23% hits; active = potentiation of 50% or more; inconclusive = 30% to 50%; inactive = 30% or less;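 also: compound concentration not given in the record; tested on top of an EC20 dose of dopamine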
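D2 cells co-treated with compound plus 50 nM dopamine (EC20) for 90 min at 37 deg C to detect potentiation. Beta-arrestin recruitment was read as enzyme-fragment luminescence after 1 h at ambient temperature. Full response was set by 57 uM dopamine.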
TRPML1 agonist: activates the human TRPML1 channel. 410,000 compounds, 0.12% hits. activation, % (test concentration not listed). TRPML1-expressing cells, Ca2+ dye fluorescence, FDSS; host cell line not named in the record; reference of the full effect not given here. AID 624414; in the data active = activation above about 50%; inconclusive = about 30% to 50%; inactive = below about 30%; also: 0% is about no effect; the text of the record puts the active cut at 80%
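Tetracycline-induced TRPML1-DL cells are seeded and incubated overnight before loading with a no-wash Ca2+ dye and quencher. Agonist activity is taken from the 110 s fluorescence read following compound pin-transfer on an FDSS, before EC80 54-4 challenge.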
Six1-Eya2 blk: inhibitors of human Six1/Eya2 interaction; Q15475+O00167; AlphaScreen GST-Six1/His-Eya2 binding, biochemical; hits give low values; control for the full effect not named in the record; activity change, % (concentration not given with the values); 360,000 compounds, 0.56% hits; AID 651725; in the data active = activity change below about -65%; inconclusive = about -30% to -65%; inactive = above about -30%; also: % is scaled to controls: 0 for no effect and ±100 for the full control effect
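Six1/Eya2 binding was read as AlphaScreen signal after compounds were pinned into GST-Six1 plus His-tagged Eya2 (5X stock 250/500 nM) in pH 8.0 Tris/NaCl/TCEP buffer, beads added, then incubated 1 h, 37 C, dark.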
CtBP-E1A blk: CtBP/E1A binding inhibition; AlphaScreen GST-E1A/His-CtBP binding, 1536-well; hits give low values; control for the full effect not named in the record; activity change, % (concentration not given with the values); 340,000 compounds, 0.49% hits; AID 651724; in the data active means activity change below about -65%; inconclusive means about -30% to -65%; inactive means above about -30%; also: % is scaled to controls: 0 for no effect and ±100 for the full control effect
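GST-E1A and His-tagged CtBP (125 nM each as 5X stock) were preincubated with pin-transferred compound for 2 h at 37 °C in the dark, then glutathione donor and nickel acceptor beads were added for 1 h before AlphaScreen reading.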
TRPV1 PAM: enhances activation of the human vanilloid receptor TRPV1. Q8NER1. TRPV1-expressing cells, Fluo-8 calcium influx, capsaicin EC20 potentiation; host cell line not named in the record; control for the full effect not named in the record. potentiation, % at 8.33 µM. 320,000 compounds, 0.02% hits; active means potentiation above 80%; inconclusive means 30% to 80%; inactive means below 30%; also: 0% is about no effect
Target sequence (Q8NER1 whole entry, looked up): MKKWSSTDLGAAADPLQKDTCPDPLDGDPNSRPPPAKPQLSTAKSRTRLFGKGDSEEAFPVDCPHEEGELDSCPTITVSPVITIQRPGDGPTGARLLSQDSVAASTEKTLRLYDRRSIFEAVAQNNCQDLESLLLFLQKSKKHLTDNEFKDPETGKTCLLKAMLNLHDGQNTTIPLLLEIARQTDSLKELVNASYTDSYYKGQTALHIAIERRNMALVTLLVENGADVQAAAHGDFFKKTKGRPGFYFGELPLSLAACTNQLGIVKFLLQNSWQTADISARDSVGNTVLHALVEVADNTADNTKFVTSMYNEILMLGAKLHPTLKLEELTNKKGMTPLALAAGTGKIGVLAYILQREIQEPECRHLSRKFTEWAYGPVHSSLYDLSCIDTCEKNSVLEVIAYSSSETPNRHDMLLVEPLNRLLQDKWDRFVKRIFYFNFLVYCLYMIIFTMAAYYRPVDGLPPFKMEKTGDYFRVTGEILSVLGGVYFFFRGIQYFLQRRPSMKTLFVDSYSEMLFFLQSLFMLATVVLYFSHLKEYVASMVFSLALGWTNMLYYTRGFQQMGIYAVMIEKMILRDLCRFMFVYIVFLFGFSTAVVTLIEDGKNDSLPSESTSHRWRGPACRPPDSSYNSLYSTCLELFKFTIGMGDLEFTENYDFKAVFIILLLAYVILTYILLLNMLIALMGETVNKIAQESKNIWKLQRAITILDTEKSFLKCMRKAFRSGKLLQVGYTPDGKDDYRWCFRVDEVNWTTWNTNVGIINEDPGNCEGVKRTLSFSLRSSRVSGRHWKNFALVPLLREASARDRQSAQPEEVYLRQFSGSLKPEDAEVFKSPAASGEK
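Fluo-8 calcium influx in TRPV1-expressing cells, kinetic read (ex 480/em 520 nm). Compound added and read 3 min for agonist activity, followed by capsaicin at EC20 final and 2 min further read for enhancement.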
TRPML1 inh: inhibitors of human TRPML1 channel. Q9GZU1. TRPML1-inducible cells, Ca2+ dye fluorescence, FDSS; hits give low values; inhibition of EC80 agonist-evoked calcium signal. activity change, negative = inhibition, % (test concentration not listed). 390,000 compounds, 0.02% hits; in the data active means activity change below about -50%; inconclusive means about -30% to -50%; inactive means above about -30%;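 also: stimulus is agonist 54-4 at its EC80 concentration; % is scaled to controls: 0 for no effect and ±100 for the full control effect; compound concentration not given in the record; the text of the record puts the active cut at -80%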
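Calcium fluorescence in TRPML1-DL cells induced overnight with Tet: a 110 s read after compound pin addition, then a 110 s antagonist read after challenge with 54-4 at 4 uM final (EC80).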
Active calls of the source: *; ? = inconclusive; / = not tested or not shown; & = joins results of further samples. Not a hit list; any-hit rate near 0.95%.

SMILES | D2 PAM | TRPML1 agonist | Six1-Eya2 blk | CtBP-E1A blk | TRPV1 PAM | TRPML1 inh
CCn1c(SCC(=O)c2ccc(Br)cc2)nnc1C(C)NC(=O)Cc1ccc(OC)cc1 (centres undefined) | 4 | 1.0 | 5 | -1 | 13 | 7
CCC(C)NC(=O)Nc1ccc(Br)cc1Cl (centres undefined) | -9 | 1.5 | 5 | -3 | -13 | -27
Cc1ccc(N(CC(=O)NCc2ccco2)C(=O)CNS(=O)(=O)c2ccc(F)cc2)c(C)c1 | -4 | -0.6 | -5 | -23 | -2 | 3
COc1ccc(OC)c(C2=NOC(C(=O)NCc3cccs3)C2)c1 (centres undefined) | -10 | 1.2 | -1 | / | ? | 4
COc1ccc(C)cc1NC(=O)Nn1cnnc1 | -11 | 1.2 | 1 | -2 | 2 | -5
NC(Cc1cnc[nH]1)c1csc(Nc2ccc(C(F)(F)F)cn2)n1 (centres undefined) | -9 | -0.1 | -90* | -92* | / | /
Cc1coc2cc3oc(=O)c(CCC(=O)N4C[C@H]5C[C@@H](C4)c4cccc(=O)n4C5)c(C)c3cc12 | -31 | / | -8 | -8 | 6 | /
COc1ccc(NS(=O)(=O)c2ccc(SC)cc2)c(OC)c1 | -11 | 0.9 | 2 | 1 | -2 | -3
O=C(N/N=C\c1cn[nH]c1-c1ccccc1)c1cccs1 | -15 | 1.0 | -28 | ? | 7 | -2
O=C1CC[C@@H]2CC(N3CCN(c4ccccc4)CC3)C[C@@H]3CCN1[C@H]23 (some centres undefined) | -56 | -0.9 | 2 | 4 | / | -11
CS(=O)(=O)N(CC(=O)NC1CCCC1)Cc1ccc(F)cc1 | -2 | 0.7 | 7 | 3 | 1 | -3
CCOc1ccccc1CNC(=O)CCCn1ccc2cc(S(=O)(=O)N3CCCC3)ccc21 | -14 | -0.6&0.4 | -2 | / | 4 | 2&2
COCC1=C(C(=O)OC(C)OC(=O)OC(C)C)N2C(=O)[C@@H](NC(=O)/C(=N\OC)c3csc(N)n3)[C@H]2SC1 (some centres undefined) | -13 | 0.3 | 0 | 6 | / | 2
Cc1ccc2c(c1)c(C)c(C)n2CC(O)Cn1nc(C)c(Br)c1C (centres undefined) | -30 | 0.4 | -27 | -16 | 3 | 14
CC(NS(=O)(=O)c1ccc2c(c1)C(C)(C)C(=O)N2C)c1ccccc1 (centres undefined) | -1 | 0.3 | 1 | 7 | 10 | -4
C[C@H]1CN([C@@H](C)CO)C(=O)Cc2cc(NC(=O)CCC(F)(F)F)ccc2O[C@H]1CN(C)Cc1ccc(C(F)(F)F)cc1 | -4 | 0.6 | -3 | -13 | / | 9
CCOC(=O)C(=O)c1c(-c2ccc(C)cc2)nc2ccccn12 | -3 | 0.6 | -11 | 1 | -18 | -12
Cc1oc(-c2nc3ccccc3n2C)cc1C(=O)c1ccccc1 | -16 | -0.4 | -13 | -10 | -7 | 2
CCOCc1nnc(NC(=O)CS(=O)(=O)c2ccc(C)cc2)s1 | -6 | 0.3 | 5 | 4 | 0 | -11
O=CNc1cc(-c2cccc(F)c2)cn2c(-c3ccc(F)c(Cl)c3)cnc12 | 2 | -0.3 | -3 | 0 | / | /
Cc1onc(-c2ccccc2)c1C(=O)OCC(=O)NC(=O)c1ccccc1 | -12 | -0.2 | 5 | 5 | 6 | 8
C=CCC1c2cccc(C(=O)O)c2C(=O)N1c1ccc(Cl)cc1 (centres undefined) | -2 | 0.8 | 5 | 3 | 0 | 11
COC(=O)c1sc2nc(C)nc(SCC(=O)C(C)(C)C)c2c1C | -24 | 4.0 | 1 | / | -10 | 20
O=C(NC(=S)Nc1cccc2cc(O)ccc12)c1ccccc1Br | -11 | 1.7 | -13 | 5 | 4 | 32
CCOC(=O)CN1C(=O)S/C(=C\c2ccc(-c3ccc(C(=O)O)c(Cl)c3)o2)C1=O | -1 | 1.5 | -16 | -12 | -6 | 33
O=C(CCN1C(=O)c2ccccc2S1(=O)=O)N1CCN(c2cccc(Cl)c2)CC1 | 4 | -0.1 | 1 | -6 | -19 | 42
C#CCOCCOCCOCCNc1nc(N2CCN(C(=O)[C@H](CCCCN)n3cc([C@@H](N)C(C)CC)nn3)CC2)nc(N2CCN(C(=O)[C@H](Cc3ccc(O)cc3)n3cc([C@@H](N)CC(C)C)nn3)CC2)n1 (some centres undefined) | -14 | -0.6 | -13 | -18 | -14 | -12
O=C(CNS(=O)(=O)c1ccc(F)cc1)N1CCCC1 | -6 | 0.2 | 0 | -2 | / | -1
COCCCN1C(=O)C(=O)/C(=C(/O)c2ccc(S(=O)(=O)N3CCCCC3)cc2)C1c1ccc(OC)cc1 (centres undefined) | -7 | -0.5 | 3 | 2 | -12 | 2
Nc1ccn([C@@H]2O[C@H](CNC(=O)[C@@H](Cc3cccnc3)NC=O)[C@@H](O)[C@H]2O)c(=O)n1 | -6 | 0.0 | -8 | 0 | / | -10
O=C(Nc1nnc(-c2ccc3c(c2)OCCO3)o1)C1CCCCC1 | -1 | 1.1 | -2 | 3 | -1 | -10
CSCCC(/C(O)=C(\C#N)c1nc2ccccc2[nH]1)N1C(=O)c2ccccc2C1=O (centres undefined) | -4 | 0.4 | -25 | -19 | -8 | 14
Cc1[nH]c2ccccc2c1C(=O)CSc1ccccn1 | -7 | 2.6 | -9 | 0 | 3 | -5
COc1cccc(/C=N/Nc2nc(-c3cccnc3)nc3ccccc23)c1 | 10 | 2.1 | -11 | -18 | -3 | -22
CCC1CCCCN1C(=O)c1noc(C(C)C)c1[N+](=O)[O-] (centres undefined) | -17 | -0.2 | 5 | 11 | 1 | 11
Cc1cccc(NC(=O)CSc2nnc(CSc3nc(C)cc(C)n3)n2Cc2ccco2)c1 | -20 | 1.6 | -1 | -2 | 2 | -3
COc1ccc2nc(NC(=O)c3ccc([N+](=O)[O-])o3)sc2c1 | 1 | -0.6 | 1 | -11 | 5 | 27
Cc1c(Br)c([N+](=O)[O-])nn1CC(=O)Nc1ccc2nc3n(c(=O)c2c1)CCCC3 | -4 | 0.9 | -17 | -17 | 5 | 17
COc1ccc(-c2csc(C(C)(NC(C)=O)c3ccc(OC)cc3)n2)cc1 (centres undefined) | -9 | -0.7 | -5 | -9 | / | /
CCOC(=O)c1ccccc1-n1nnnc1C | -2 | -0.8 | 8 | 8 | 6 | -14
Clc1ccc(-c2nn3c(C4COc5ccccc5O4)nnc3s2)cc1 (centres undefined) | -10 | 1.0 | -3 | 11 | -1 | -1
COc1ccc(C2CC(=O)N(C)c3ccccc3S2)cc1 (centres undefined) | -5 | 2.4 | -5 | 10 | -31 | 28
Cc1ccc(C(=O)CCNc2ccc(F)c(Cl)c2)o1 | -4 | 0.3 | -7 | -8 | 0 | -7
O=C(CSc1ncnc2ccccc12)c1cccs1 | -1 | 0.0 | 2 | -20 | -1 | -7
CCC(=O)Nc1ccc(Cl)c(NC(=O)c2ccccc2OC)c1 | 2 | -0.7 | -1 | 6 | -7 | 26

Rewritten as tab-separated lines: part of the list above.
SMILES	D2 PAM	TRPML1 agonist	Six1-Eya2 blk	CtBP-E1A blk	TRPV1 PAM	TRPML1 inh
COc1ccc2nc(NC(=O)c3ccc([N+](=O)[O-])o3)sc2c1	1	-0.6	1	-11	5	27
Cc1c(Br)c([N+](=O)[O-])nn1CC(=O)Nc1ccc2nc3n(c(=O)c2c1)CCCC3	-4	0.9	-17	-17	5	17
COc1ccc(-c2csc(C(C)(NC(C)=O)c3ccc(OC)cc3)n2)cc1 (centres undefined)	-9	-0.7	-5	-9	/	/
CCOC(=O)c1ccccc1-n1nnnc1C	-2	-0.8	8	8	6	-14
Clc1ccc(-c2nn3c(C4COc5ccccc5O4)nnc3s2)cc1 (centres undefined)	-10	1.0	-3	11	-1	-1
COc1ccc(C2CC(=O)N(C)c3ccccc3S2)cc1 (centres undefined)	-5	2.4	-5	10	-31	28
Cc1ccc(C(=O)CCNc2ccc(F)c(Cl)c2)o1	-4	0.3	-7	-8	0	-7
O=C(CSc1ncnc2ccccc12)c1cccs1	-1	0.0	2	-20	-1	-7
CCC(=O)Nc1ccc(Cl)c(NC(=O)c2ccccc2OC)c1	2	-0.7	-1	6	-7	26

Other records
SMILES | D2 PAM | TRPML1 agonist | Six1-Eya2 blk | CtBP-E1A blk | TRPV1 PAM | TRPML1 inh
O=C(CCSCc1ccccc1F)NCCc1ccccc1 | -1 | -0.3 | -3 | 5 | -14 | 10
CCCCCOc1ccc2oc(=O)c3c(c2c1)CCCN3C(=O)CN1CCCC(C(=O)OCC)C1 (centres undefined) | -24 | 3.7 | -11 | -4 | -14 | 84
CCn1c(/C=C/Nc2ccccc2)[n+](CC)c2cc(Cl)c(Cl)cc21 | -48 | 1.6 | ? | -27 | -8 | 3
COc1ccccc1C(=O)NCC(=O)NCCSc1ccc(Br)cc1 | -10 | 0.6 | 0 | -1 | 3 | -22
O=C1CC(SCCO)C(=O)N1c1ccc(Oc2ccccc2)cc1 (centres undefined) | -15 | -0.5 | -1 | 8 | -14 | 4
COc1ccc(-c2ccc3oc(-c4ccsc4)cc(=O)c3c2)cn1 | -32 | -0.4 | 1 | 0 | / | -18
Cc1ccccc1OCC(=O)NNC(=O)Cn1[nH]c(=O)c2ccccc2c1=O | -6 | 0.7 | 4 | -1 | / | -3
CC(=O)Nc1ccc(-c2c(C)cc3oc(=O)cc(-c4ccccc4)c3c2C)cc1 | -5 | -0.4 | 1 | 2 | / | -6
CCc1cccc(C)c1NC(=O)CN(C)Cc1cccc(F)c1 | -8 | 3.5 | 0 | -24 | -5 | 5
C=CCNC(=O)/C(=C\c1ccc(OC)cc1)NC(=O)c1ccc([N+](=O)[O-])cc1 | 10 | -0.2 | 7 | 3 | 5 | -10
Cc1ccccc1NC(=O)CN1C(=S)NC(C)(C)CC1C (centres undefined) | -20 | -0.3 | 1 | 14 | 1 | -5
Cc1ccc(C2SCC(=O)N2Cc2ccccc2)cc1 (centres undefined) | -11 | 4.4 | -1 | -3 | -9 | 41
CC(C)(C)n1nnnc1C(c1cccnc1)N1CCN(c2cccc(C(F)(F)F)c2)CC1 (centres undefined) | -14 | -0.2 | 10 | 29 | -24 | -11
CNc1nc(Sc2ccccc2)cc(C(F)(F)F)n1 | -10 | 0.4 | 18 | -7 | 13 | 8
O=C(Cc1ccccc1)NCC(=O)N1CCC1 | 3 | -0.3 | -3 | -7 | -18 | -1
COc1ccccc1OCC(=O)NC1CCCc2ccccc21 (centres undefined) | -1 | 2.3 | 1 | -3 | -24 | 21
Cc1ccc(C2(c3ccc(C)cc3)CC2C(=O)Nc2ccc([N+](=O)[O-])cc2O)cc1 (centres undefined) | -11 | -0.1 | ? | 15 | 4 | -4
O=C(CSc1nc2[nH]ncc2c(=O)[nH]1)Nc1cc(C(F)(F)F)ccc1Cl | -6 | -0.4 | 2 | 4 | / | 9
CC1CCN(Cc2cc(=O)oc3ccc(C(C)C)cc23)CC1 | -7 | 1.1 | 0 | 9 | -4 | -21

Screens as filed in PubChem.
